Screens deposited in PubChem by Fisher Drug Discovery Resource Center.
NPYLR7 agonist = agonists of mosquito NPYLR7 receptor, primary screen, cell-based, Aedes aegypti, calcium fluorescence, mosquito biting behavior | HEK293T NPYLR7/Galpha15, GCaMP6s calcium fluorescence | activation, % at 10 µM | Aedes aegypti neuropeptide Y-like receptor 7 (NPYLR7) | 270,000 compounds, 0.15% hits; in the data active = activation above about 40%;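 also: 0% = vehicle and 100% = reference agonist at the receptor; some compounds past the cut are filed as inactive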
NPYLR7 agonist max-min = also measured in NPYLR7 agonist; calls as there; activation, %; measured here: Max-Min RFU normalised activation; some inactives read as strong as hits;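 span of the calcium signal over five minutes; 0% = vehicle and 100% = native peptide agonist; compound fluorescence can raise it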
* hit, by the source's call; & = joins results of further samples. This is a subset (hit frequency here may not be typical).

Values run as follows: NPYLR7 agonist	NPYLR7 agonist max-min
> O=C(CCC1CCCC1)N1CCN(C(=O)c2cccc(F)c2)CC1
 : 12	7
> CCc1c(C)nc(-c2cccc(C(F)(F)F)c2)nc1N1CCN(C(=O)c2ccc3c(c2)OCO3)CC1
 : 9	20
> CCOc1ccccc1NC(=O)Nc1ccc(N2CCc3ccccc3C2)c(C(=O)NCCCOC)c1
 : 22	23
> O=C(CSc1ccc2nnc(-c3cccnc3)n2n1)NCC1(c2ccccc2)CCOCC1
 : 1	-4
> COC(=O)c1ccc(CSc2ncnc3c2nnn3Cc2ccccc2)o1
 : 1	28
> COCCn1cc(C(=O)NCC2CCCO2)c2nn(-c3ccccc3)c(=O)c-2c1 (stereo not drawn)
 : 6	5
> CCS(=O)(=O)N1CCc2c(nc(C)nc2N(C)C)C1
 : 7	3
> Cc1nc(NC(=O)NC2CCN(Cc3ccccc3)CC2)nn1C
 : 4	4
> O=C(NC1CCCCC1)c1cc(-c2ccc([N+](=O)[O-])cc2)nn1-c1ccc(Cl)cc1
 : 0	-1
> O=C(Nc1ccc(Oc2cccc3cccnc23)c(Cl)c1)c1cc(Cl)cc(Br)c1O
 : -13	-3
> O=C(O)c1cccc(CC2CCN(C(=O)c3cccc4nccnc34)CC2)c1
 : 4	2
> CC(C)c1ccc(-n2nc(C(=O)NCc3ccncc3)c(=O)n(Cc3ccccc3F)c2=O)cc1
 : 0	8
> CCOCCCN(CC(C)C(=O)OC)C(=O)/C=C/c1cscn1 (stereo not drawn)
 : 2	-2
> O=C(Nc1ccccc1-c1ccccc1)N1CCCn2cncc2C1
 : -1	-7
> O=C(Nc1cc(Cl)ccc1C(F)(F)F)c1ncn(-c2ccccc2)n1
 : 6	11
> CCOC(=O)N1CCN(C(=O)CSc2nnc(C)c3cnn(-c4ccccc4OC)c23)CC1
 : -8	-12
> COc1ccc(Br)cc1C1=N/C(=C\c2coc3ccccc3c2=O)C(=O)O1
 : 3	5
> CCN(CC(C)C#N)C(=O)CN1CCN(CC2CCCO2)CC1 (stereo not drawn)
 : -7	-10
> COC(=O)c1cccn1C1CCN(C(C)C(=O)NC(N)=O)CC1 (stereo not drawn)
 : 0	19
> CC(c1cccnc1)N(C)Cc1ccc2ccccc2n1 (stereo not drawn)
 : -4	-7
> O=c1c2c3c(sc2ncn1N=Cc1ccccc1Cl)CCCC3
 : -4	-8
> O=C(Nc1ccccc1)c1cc(C2CC2)n(C2CCS(=O)(=O)C2)n1 (stereo not drawn)
 : 5	3
> CCOc1ccc(-c2ccc(C(=O)N3CCN(c4ccc(NC(=O)COC)cn4)CC3)s2)cc1
 : -3	-7
> Brc1ccc(-c2nnc3sc(CN4CCCCC4)cn23)cc1
 : 1	39
> Cc1cccc(C(C(=O)N2CCC3(CC2)CNC(=O)O3)N(C)C)c1 (stereo not drawn)
 : 2	0
> COc1ccc(Nc2nc(Cl)nc(NCCN3CCOCC3)n2)c(OC)c1
 : -4	-14
> O=C(NCc1ccc(F)cc1Cl)C1CCN(c2ncccc2S(=O)(=O)N2CCOCC2)CC1
 : -2	-4
> Cc1cc(N)nc(SCC(=O)NC2CCCCC2)n1
 : 8	1
> N#Cc1sc2nc3c(c(C4CC=CCC4)c2c1N)CCC3 (stereo not drawn)
 : -3&4	-5&2
> Cn1c(=O)c2c(-c3ccc(Br)cc3)c(NCc3ccccc3)oc2n(C)c1=O
 : -3	-5

Some of these compounds in order of length of the SMILES, lowest first:
Values run as follows: NPYLR7 agonist	NPYLR7 agonist max-min
> Cc1cc(N)nc(SCC(=O)NC2CCCCC2)n1
 : 8	1
> N#Cc1sc2nc3c(c(C4CC=CCC4)c2c1N)CCC3 (stereo not drawn)
 : -3&4	-5&2
> O=C(Nc1ccccc1)c1cc(C2CC2)n(C2CCS(=O)(=O)C2)n1 (stereo not drawn)
 : 5	3
> Cn1c(=O)c2c(-c3ccc(Br)cc3)c(NCc3ccccc3)oc2n(C)c1=O
 : -3	-5
> O=C(NCc1ccc(F)cc1Cl)C1CCN(c2ncccc2S(=O)(=O)N2CCOCC2)CC1
 : -2	-4
> CCOc1ccc(-c2ccc(C(=O)N3CCN(c4ccc(NC(=O)COC)cn4)CC3)s2)cc1
 : -3	-7

Other compounds:
Values run as follows: NPYLR7 agonist	NPYLR7 agonist max-min
> CCOc1ccc2nc(CNC(C)c3cnn(-c4ccccc4)c3C)ccc2c1 (stereo not drawn)
 : 3	-1
> CCn1nnc2c(SC(C)C)ncnc21
 : -1	7
> Cc1nn2cc(CNC3CCC4(CCNCC4)CC3)nc2s1
 : 1	4
> CN(C)c1ccc(/C=C2\SC(=S)N(c3ccc([N+](=O)[O-])cc3)C2=O)cc1
 : 5	12
> CCCCCC(=O)Nc1c(-c2cccc(Cl)c2)nc2ccc(C)cn12
 : 6	10
> NC(=O)c1cncc(Oc2cc(F)c(CN3CCCC3)c(F)c2)n1
 : 14	10
> Cc1cc(C(=O)Cn2cnc3sccc3c2=O)c(C)n1Cc1ccco1
 : 22	13
> CC1CCCN(C(C)C(=O)N(C)CC(=O)Nc2ccccc2C(F)(F)F)C1 (stereo not drawn)
 : -3	-4
> O=C1N=C(N2CCCCC2)SC1=Cc1csc(-c2ccco2)n1
 : 0	-2
> COCCCN(CC(=O)N1CCc2sccc2C1COc1ccc(Cl)cc1)C(=O)c1ccco1 (stereo not drawn)
 : 10	6
> CC(=O)c1c(C)[nH]c(C(=O)OCc2nc3sc4c(c3c(=O)[nH]2)CCC(C)C4)c1C (stereo not drawn)
 : 4	1
> COCCCNC(=O)c1cc(-c2ccc(F)cc2)nc2cc(-c3ccccc3)nn12
 : 21	24
> COCCN(CC(=O)N(Cc1ccc(F)cc1)Cc1ccco1)C(=O)Nc1ccc(C)c(C)c1
 : -3	4
> CN1CCN(c2ccc(NC(=O)c3ccoc3)c(C(F)(F)F)c2)CC1
 : 4	5
> N#CCNC(=O)CNc1cccc(Cl)c1N1CCOCC1
 : 13	11
> CCN(CC)CCNC(=O)c1cc(NC(=O)Nc2ccccc2Br)ccc1N1CCCCC1
 : -4	-1
> O=C(O)c1c[nH]c2ccc(S(=O)(=O)NCCc3c[nH]c4ccccc34)cc2c1=O
 : 15	18
> Cc1cc2n(CC(O)COc3ccccc3)c(C)cc(=O)n2n1 (stereo not drawn)
 : 4	4
> CCC(C)N(C(=O)CN1CCN(c2cccc(C)c2C)CC1)C1CCS(=O)(=O)C1 (stereo not drawn)
 : -1	-6
> CCCC(C)(C)C(=O)N1CCC1(C)C(=O)NS(=O)(=O)c1ccccc1 (stereo not drawn)
 : 11	11
> CCCCC(=O)NCCc1cc2ccc(C)cc2[nH]c1=O
 : 1	22
> C[C@@]1(O)CCN(C(=O)c2cccc(-n3cccn3)c2)C[C@@H]1Cc1ccccc1
 : 1	-8
> Cc1c(C)n(Cc2ccccc2)c2ncnc(N=CC(C#N)C#N)c12
 : 17	14
> O=C(COC(=O)C1SCCc2sccc21)NCc1ccc2c(c1)OCO2 (stereo not drawn)
 : -4	-4
> Cc1c(C(=O)NC2CCCC2)sc(=O)n1Cc1ccc(F)c(Cl)c1
 : -10	0
> CCCCN(CC(=O)N1c2ccccc2-n2cccc2C1c1ccc(C)cc1)C(=O)COc1ccc(Cl)cc1 (stereo not drawn)
 : 4	14
> COc1cc(=O)n(-c2ccccc2)nc1C(=O)N1CCOCC1
 : 3	0
> O=C(CCc1ccco1)N1CCN(C(=O)NC2CCCCC2)CC1
 : 0	0
> CCCc1nc(C2CN(CC(=O)N(C)Cc3ccco3)CCO2)n[nH]1 (stereo not drawn)
 : 11	6
> COc1ccc(/C=C/C(=O)NC(C)c2ccccc2F)cc1OC (stereo not drawn)
 : 3	0
> CC1CCN(C(=O)Nc2sc3c(c2C(=O)O)CC(C)(C)OC3)CC1
 : -15	-21
> CC(c1ccc(F)cc1)N1CCN(S(=O)(=O)N(C)C)CC1 (stereo not drawn)
 : 3	3
> Cc1n[nH]c(C)c1S(=O)(=O)N1CCOCC1
 : 16	8
> Cc1cccc2sc(N(CCN(C)C)C(=O)c3ccc(S(C)(=O)=O)cc3)nc12
 : 1	-8
> NC1(C(=O)O)CCN(Cc2cccn2-c2ncccn2)C1 (stereo not drawn)
 : 1	5
> Cc1ccc([N+](=O)[O-])cc1NC(=O)c1cc2ccccc2o1
 : 12	2
> Cc1cccc(C)c1NC(=O)Cn1ccn2nc(-c3ccc(Cl)cc3)cc2c1=O
 : 4	3
> O=C(CSc1nc(=O)n(CCO)c2c1CCCC2)NCc1ccc2c(c1)OCO2
 : -2	-8
> COc1cccc(CN2CCN(Cc3cc(Cl)ccc3O)CC2CCO)c1 (stereo not drawn)
 : -9	-11
> CCOC(=NCCOC)NC(=O)c1ccc(Cl)c(Cl)c1
 : 7	13
> O=C(NCc1ccccc1CS(=O)(=O)N1CCOCC1)c1ccoc1
 : 19	8
> c1ccc(COn2c3c(c4c5nonc5ccc42)CCCC3)cc1
 : 6	3
> COc1ccc(N=Cc2cc(Br)ccc2O)c(OC)c1
 : 4	4
> CCOC(=O)c1cnc(SC)nc1-c1ccc2c(c1)OCCO2
 : -6	0
> CC(C)=CC1C(C(=O)NS(=O)(=O)N2CCCCC2)C1(C)C (stereo not drawn)
 : 0	-1
> COc1cccc(CC2(CO)CCN(c3ncnc4sccc34)CC2)c1
 : -4	-4
> COc1ccc(-c2nn(-c3ccccc3C)cc2CN2CCNC(=O)C2)cc1F
 : 1&-1	1&-3
> O=C(NCc1ccc(N2CCCC2=O)cc1)c1cc(=O)c2ccccc2o1
 : -4	-5
> CSc1ccc(COc2coc(CN3CCN(C(=O)/C=C/c4ccc(OC(F)(F)F)cc4)CC3)cc2=O)cc1
 : 29	13
> Cn1c(=O)c2c(ncn2CC(=O)Nc2nnc(C3CC3)s2)n(C)c1=O
 : 0	3

(cont.)
Values run as follows: NPYLR7 agonist	NPYLR7 agonist max-min
> O=S(=O)(NCc1ccncc1)c1ccc(Br)cc1
 : -1	3
> Cc1nc2ccc(Cl)cn2c(=O)c1NC(=O)CC1CCCC1
 : 2	0
> Cc1ccc(COc2ccc([C@@H]3c4c(C)nn(C)c4NC(=O)[C@H]3NC(=O)c3ccccc3)cc2)cc1
 : 1	3
> CCC(C)NC(=O)c1c(O)nc2c(C)cccn2c1=O (stereo not drawn)
 : -1	9
> CCCCCn1c(=N)c(C(=O)OCC)cc2c(=O)n3ccccc3nc21
 : 4	8
> O=C(NCc1cccnc1N1CCOCC1)c1ccc(Cn2cnnn2)cc1
 : 1	0
> COCc1cc(N2CCN(C)CC2)nc(SCc2ccc(C(=O)NCCc3ccccn3)o2)n1
 : -8	0
> COC(=O)CCCC(=O)N1CCN(c2ccc(NC(=O)c3ccco3)cn2)CC1
 : 26	13
> CC(=O)Oc1c[nH]c2ccccc12
 : -2	-1
> Cc1cc(-c2nn(-c3ccccc3F)cc2CN(Cc2nccn2C)C(C)C)c(C)s1
 : 11&2	9&-3
> CN(Cc1ccccc1)c1ncccc1CNC(=O)C1(C)CCCO1 (stereo not drawn)
 : 3	0
> CCOc1ccc(C=NNc2nc(-c3ccc(OCC)cc3)c(C)s2)cc1
 : 1	4
> Cn1ccnc1C(NC(=O)COc1cccc(Br)c1)c1ccccc1F (stereo not drawn)
 : -1	11
> N#Cc1c(NC(=O)CSc2ccc3ccccc3n2)sc2c1CCCC2
 : -7	-12
> O=C1CCC2(C(=O)Nc3ccc(Oc4ccccc4)cc3)SCCN12 (stereo not drawn)
 : -16	-17
> O=C(O)CNc1cc(-c2ccccc2C(F)(F)F)c2cc[nH]c2n1
 : 4	19
> Cc1cc(N2CCN(S(=O)(=O)c3cccc(Cl)c3Cl)CC2)nc(C(C)C)n1
 : 0	2
> CCCn1c(N)c(N(CCOC)C(=O)CC(C)C)c(=O)[nH]c1=O
 : 7	7
> O=C(CSc1nnnn1C1CCCC1)c1ccc[nH]1
 : 3	8
> CCOC(=O)c1nn(-c2ccc(C(=O)NC(Cc3ccccc3)c3ccccc3)cc2)c2c1Cc1ccccc1-2 (stereo not drawn)
 : 4	6
> N#Cc1ccc(N2CCC(NC(=O)N3CCNC(=O)CC3)CC2)cc1
 : -1	0
> Cc1nc(-c2cccs2)sc1-c1ccc(SCC#N)nn1
 : 5	-1
> CCN(CC)CCNc1ccc2nnc(CCNS(=O)(=O)c3ccc(C)cc3)n2n1
 : 8	-4
> COCC1(C(=O)N2CC[C@@H](c3ccc4c(c3)OCO4)[C@H](O)C2)CCC1
 : 1	1
> CC(C)CCC1(C)NC(=O)N(CC(=O)O)C1=O (stereo not drawn)
 : 11	8
> C#CCn1c(CCc2ccccc2)nc2ccccc21
 : 9	19
> CC(C)C(Sc1nnc(-c2ccco2)n1C)C(=O)NC(N)=O (stereo not drawn)
 : -7	-11
> COc1c[nH]c(CN2CCCC(Nc3ccc(F)c(F)c3)C2)cc1=O (stereo not drawn)
 : 1	-2
> O=C(NCCc1ccccn1)c1cc2n(n1)CCN(Cc1cccc(Cl)c1)C2=O
 : -2	-1
> Cc1cccnc1NCCNC(=O)c1cccc2ccnn12
 : -1	-3
> COc1cccc(OC)c1C(=O)Nc1c(C)nc2sccn2c1=O
 : 7	-2
> CCOc1ccc(NC(=O)N(CCCOC)Cc2ccc(OS(C)(=O)=O)cc2)cc1
 : -6	-6
> CC1(C(=O)O)CCCN1C(=O)c1cccc(OC(F)(F)F)c1 (stereo not drawn)
 : 1	-2
> COc1ccc(CNC(=O)C(C)N2CCN(S(=O)(=O)c3ccccc3F)CC2)cc1 (stereo not drawn)
 : -4	-5
> O=C(CCCn1nnnc1CN1CCc2ccccc2C1)N1CCCC1
 : 3	-3
> CCCn1c(=O)c2c(nc3n(CCC)c(-c4ccccc4)cn23)n(C)c1=O
 : 9	8
> COC(=O)c1cc(C2CC2)nc2c1c(-c1ccco1)nn2C1CCS(=O)(=O)C1 (stereo not drawn)
 : 12	6
> Cc1ccc(-n2nc(-c3ccc(C)o3)cc2C(=O)O)c(C)c1
 : 15	16
> O=C(/C=C/c1cc(F)ccc1F)NCC1Cc2cc(-c3cncnc3)cc(Cl)c2O1 (stereo not drawn)
 : 17	5
